Source: PubChem BioAssay (PCMD)
Biofilm kill mix = clotrimazole potentiators killing C. albicans biofilm, primary screen, 4-compound mixtures; C. albicans biofilm persisters + clotrimazole, fluorescence viability; primary screen in compound mixtures of four per well; inhibition, % at 7.6 µM; hit rate 0.02% among 120,000; AID 1242, 2008;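 active = inhibition above 30.3% in the primary screen of four-compound pools, then above 30% when the compound was retested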;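 note: compounds exposed to preformed 24 h biofilms for 48 h; the number belongs to the whole pool; some results filed as inactive read as strong as hits; inactives centre near 12; 0% = biofilm with clotrimazole alone and 100% = kill control; retested singly at about 60 µM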
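Assay system: C. albicans biofilms / Medium: RPMI/MOPS medium, pH 7.0 / Schedule: biofilm formation 24 h, compound exposure 48 h, 37 °C / Measured by: Alamar Blue fluorescence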
Starred values were filed as active, the others as inactive. Not all compounds are listed. The share of hits here may be higher or lower than overall.

Start of the data: the first 2 records, ahead of the listing:
SMILES | Biofilm kill mix
COc1cc(C(Nc2ccc(S(=O)(=O)NCC3CCCO3)cc2)C(=O)NC(C)(C)C)cc(OC)c1OC (stereo not drawn) | 18.4
Cc1ccnc(NC(=O)/C=C/c2cccs2)c1 | 25.2

All compounds of this part, from the first entry:
SMILES | Biofilm kill mix
COc1cc(C(Nc2ccc(S(=O)(=O)NCC3CCCO3)cc2)C(=O)NC(C)(C)C)cc(OC)c1OC (stereo not drawn) | 18.4
Cc1ccnc(NC(=O)/C=C/c2cccs2)c1 | 25.2
Cn1cnc(C(F)(F)F)c1-c1ccc([N+](=O)[O-])cc1 | 9.5
Cc1nc2cc3nc(C(F)(F)F)[nH]c3cc2[nH]1 | 3.1
CCN(C(=O)CSc1nc2ccc([N+](=O)[O-])cc2s1)C1CCS(=O)(=O)C1 (stereo not drawn) | 9.6
CC(C)(C)NC(=O)C(c1ccccn1)N(C(=O)C1CSC(=O)C1)c1ccccc1F (stereo not drawn) | 15.7
Cc1ccccc1CN1C[C@@H]2C[C@@H](c3cn(C)nc3-c3ccccc3)N3CCC[C@@]23C1=O | 29.3
CCC(=O)c1cc(F)ccc1OCC(=O)N1CCN(c2ccc(F)cc2)CC1 | -11.7
C=C(C)C(=O)N1CC2(CC(c3cccc(NC(=O)CCCCC)c3)=NO2)C[C@H]1C(N)=O (stereo partly drawn) | 14.6
CCC1=[N+](CC(=O)c2ccc(Br)cc2)CCn2c(C)ccc21 | 24.0
Cc1ccc(CNC(=O)C2CCCN(c3nc(C)cc(C)n3)C2)cc1 (stereo not drawn) | 18.2
O=C1NCCN1CCNS(=O)(=O)c1ccc(F)c(Cl)c1 | 10.8
COC(=O)c1cnn2c1C(=O)N(Cc1cccs1)CC2 | 20.1
Cc1ccc(S(=O)(=O)NCCC(=O)OCC(=O)Nc2cccc(S(=O)(=O)NC3=NCCCCC3)c2)cc1 | 7.3
CCOC(=O)C1C(c2ccc([N+](=O)[O-])cc2)C2C(=O)NN=C2CC1(C)O (stereo not drawn) | 30.5

Going on with the list.
SMILES | Biofilm kill mix
C=C(C)CN(CC)C(=O)c1ccc(OC2CCN(S(=O)(=O)N(C)C)CC2)cc1 | 14.8
COc1ccc(CC(=O)NNC(=O)Cc2ccc(OC)cc2)cc1 | 11.4
COc1ccc(NC(=O)/C=C/C(=O)O)c([N+](=O)[O-])c1 | 12.4
O=C(CNS(=O)(=O)c1cccc(Cl)c1)Nc1ccc(-c2nc3ccccc3s2)cc1 | 11.6
Cc1ccccc1OCCNC(=O)CSc1ccc(C(F)(F)F)cc1[N+](=O)[O-] | 8.3
CC(C)N(Cc1nc(-c2ccccc2)no1)C(=O)c1ccc([N+](=O)[O-])cc1 | 8.1
COc1ccc2[nH]c3c(=O)n4c(nc3c2c1)SCC4 | 23.9
Cc1ccc(NC(=O)c2nc[nH]c2C(=O)N2CCOCC2)c(C(=O)c2ccccc2)c1 | 15.3
Nc1nnc(SCC(=O)OCc2ccc(Cl)c(Cl)c2)s1 | 9.6
O=c1cc(-c2ccccc2)[nH]c2cc(F)ccc12 | 7.1
COc1ccc(OC)c(-n2c(-c3cc(-c4ccccc4)n[nH]3)n[nH]c2=S)c1 | 6.4
CCCCC(c1nnnn1CCOC)N1CCN(CC)CC1 (stereo not drawn) | 13.2
CCC(SC1=NCCS1)C(=O)Nc1ccc(S(N)(=O)=O)cc1 (stereo not drawn) | 10.3
CCNc1nc(Cl)nc(NCCOc2ccc(C)cc2)n1 | 1.5
CSCC(NS(=O)(=O)c1ccc(C)cc1)C(=O)O (stereo not drawn) | 9.4

(list continues)
SMILES | Biofilm kill mix
Cc1ccc(C(=O)NNc2ncnc3c2cnn3C)cc1 | 11.7
Cc1cc(C)nc(Nc2ccc(C)c([N+](=O)[O-])c2)n1 | 12.2
Cc1ccc(CNC(=O)COC(=O)Cc2ccc(-c3ccccc3)cc2)cc1 | 5.7
CC(C)CC(=O)NC(c1cccs1)c1ccc2cccnc2c1O (stereo not drawn) | 20.0
O=C(NC(=S)Nc1ccc(N2CCCC2)cc1)c1ccccc1[N+](=O)[O-] | 12.9
OCC1CCN(Cc2nc(Cc3ccccc3Cl)no2)CC1 | -7.0
COc1cc(OC)cc(-c2nc(-c3cccs3)no2)c1 | 14.3
Cc1nc(C)c(C(=O)NNS(=O)(=O)c2ccccc2)s1 | 21.4
CC(C)NS(=O)(=O)c1ccc(CCC(=O)N2CCc3ccccc3C2)cc1 | 22.0
N/C(=N\OC(=O)c1cnn(-c2ccccc2)c1C(F)(F)F)c1cc(C(F)(F)F)cc(C(F)(F)F)c1 | 19.6
CC1CCC(C(C)C)C(OCC(O)CNC(C)(C)C)C1 (stereo not drawn) | 11.3
O=C(CSc1nccc(=O)[nH]1)c1ccco1 | 19.5
O=C(Nc1ccc(F)cc1)N1CCCC(c2nc3c(nnn3Cc3ccccc3Cl)c(=O)[nH]2)C1 (stereo not drawn) | 11.9
O=[N+]([O-])c1cccc(C(=S)N2CCN(c3ccccc3)CC2)c1 | 10.8
Cn1c(Cn2c3ccccc3c3ccccc32)n[nH]c1=S | 28.4

(cont.)
SMILES | Biofilm kill mix
Cc1ccc(NC(=O)Cn2nnc3ccccc32)cc1 | 15.7
C(=Nc1cccc2c(N=Cc3ccco3)cccc12)c1ccco1 | 9.2
Cc1ccccc1N(CC(=O)O)S(C)(=O)=O | 7.4
CC(C)CN(C(=O)CN1CCCCCC1)c1c(N)n(CC(C)C)c(=O)[nH]c1=O | 11.4
COc1cc(CN2CCNC(=O)C2CC(=O)N2CCCO2)cc(OC)c1 (stereo not drawn) | 14.4
CCO[C@H]1OC(C(=O)N2CCOCC2)=C[C@@H](c2coc3ccccc3c2=O)[C@@H]1CCCO | 25.7
COc1ccc2[nH]cc(/C=N/NS(=O)(=O)c3ccc(C)cc3)c2c1 | 30.7
COc1ccc(S(=O)(=O)NC(CC(=O)O)c2ccco2)cc1 (stereo not drawn) | -1.8
CCN(CC(=O)NCc1cccs1)C(=O)c1ccc(S(=O)(=O)N(C)C)cc1 | 11.3
O=C(Cc1c(Cl)cccc1Cl)Nc1cccnc1 | 17.3
Cc1cccc2cc(CN(CC3CCCO3)C(=S)Nc3ccccc3)c(=O)[nH]c12 (stereo not drawn) | 9.1
NS(=O)(=O)c1ccc(CCNC(=O)CSc2ccsc2[N+](=O)[O-])cc1 | 20.4
CCn1c(COc2c(C)cccc2C)nnc1SCc1nc2ccccc2c(=O)[nH]1 | 13.6
Nc1ccc(-c2nc3ccc(C(=O)O)cc3s2)cc1 | -6.0
COC(=O)c1ccc(N=Cc2c(C(F)(F)F)[nH]n(C)c2=O)cc1 | 1.0

Seven entries picked at random from the list so far, as already listed:
SMILES | Biofilm kill mix
Cc1ccccc1N(CC(=O)O)S(C)(=O)=O | 7.4
COC(=O)c1ccc(N=Cc2c(C(F)(F)F)[nH]n(C)c2=O)cc1 | 1.0
O=C(Cc1c(Cl)cccc1Cl)Nc1cccnc1 | 17.3
COc1cc(CN2CCNC(=O)C2CC(=O)N2CCCO2)cc(OC)c1 (stereo not drawn) | 14.4
C(=Nc1cccc2c(N=Cc3ccco3)cccc12)c1ccco1 | 9.2
COc1ccc2[nH]cc(/C=N/NS(=O)(=O)c3ccc(C)cc3)c2c1 | 30.7
CCO[C@H]1OC(C(=O)N2CCOCC2)=C[C@@H](c2coc3ccccc3c2=O)[C@@H]1CCCO | 25.7

(more compounds)
SMILES | Biofilm kill mix
O=C(COC(=O)c1cccnc1Cl)NCc1ccco1 | 13.9
Cc1cccc(C)c1N1CCN(C(=O)Cn2cncn2)CC1 | 12.5
Fc1ccc(N2N=C(c3cccs3)CC2c2ccccc2)cc1 (stereo not drawn) | 17.7
COc1ccccc1NC(=O)COC(=O)c1ccccc1C(=O)N1CCN(c2ccccc2)CC1 | 9.2
O=S(=O)(Nc1ccccc1O)c1cccc2cccnc12 | 10.5
COc1ccccc1/C=[N+](\[O-])C1SC(=S)N(C)C1(C)C (stereo not drawn) | 20.4
O=C(N/N=C/c1ccc([N+](=O)[O-])o1)c1ccc(O)cc1 | 6.3
CSc1ccccc1NC(=O)CN(C)CC(=O)Nc1ccccc1C(F)(F)F | 13.9
Cc1ccccc1N(C(=O)Cc1c[nH]c2ccccc12)C(C(=O)NC1CCCCC1)c1ccco1 (stereo not drawn) | 11.1
C=CCSc1ncc(-c2ccccc2)cn1 | -4.2
Cc1cc(C(=O)N/N=C2\CC(=O)CC(C)(C)C2)c2ccccc2n1 | 17.3
S=C1CSc2ccccc2N1 | -1.6
CC(=O)c1c(C)[nH]c(C(=O)O)c1C | -5.7
O=C(COc1cccc(-n2cnnn2)c1)Nc1ccccc1 | 12.6
COC(=O)c1ccc(CN2CCC(CO)(Cc3cccc(OC)c3)CC2)cc1 | 5.2

Following part:
SMILES | Biofilm kill mix
CC(C)CNC(=O)C1CCCN(C(=O)NCc2ccccc2)C1 (stereo not drawn) | -7.1
O=C(O)c1cc(-c2c[nH]c3ccccc23)nc2cc3ccccc3cc12 | 10.1
Nc1cc(-c2ccccc2)nn1Cc1ccccc1 | 15.2
CC1(C)CC2CC(C)(CN2S(=O)(=O)c2cccc(N)c2)C1 (stereo not drawn) | 13.0
CCCCC(=O)Nc1cccc(C(C)O)c1 (stereo not drawn) | 7.3
Cc1sc2ccccc2[n+]1CC(=O)O | 23.8
O=C(CNC(=O)c1ccccc1)Nc1cccc(C(F)(F)F)c1 | 16.1
COc1cc(S(=O)(=O)N2CCN(c3ccccc3)CC2)ccc1F | 27.3
CN(c1ccc([N+](=O)[O-])cc1C(N)=O)C1CCCCC1 | 21.3
Cc1ccnc(NS(=O)(=O)c2ccc(NC(=O)c3ccc(S(=O)(=O)N4CCOCC4)cc3)cc2)n1 | 2.3
CC(C)C(C(=O)NCC1CCCO1)N(Cc1cccs1)C(=O)CNS(=O)(=O)c1ccccc1 (stereo not drawn) | 18.0
CC1CN(c2nc(Nc3ccccc3)nc(N)c2[N+](=O)[O-])CC(C)O1 (stereo not drawn) | 4.3
Clc1ccc(CN2CCN(/N=C/c3cccnc3)CC2)cc1 | 13.3
COCC(C)n1c(C)cc(C(=O)COC(=O)CN=C2NS(=O)(=O)c3ccccc32)c1C (stereo not drawn) | 7.2
CCC(=O)c1ccc(N2CCN(C(=O)c3cccc(F)c3)CC2)c(F)c1 | 9.6

Later entries.
SMILES | Biofilm kill mix
O=C(c1cc(=O)[nH]c2ccccc12)N1CCN(c2ccccc2)CC1 | 15.2
COC(C[C@@H]1O[C@H]1[C@H](O)COCc1ccccc1)OC | 15.2
O=C(Nc1nc(-c2cccs2)c(C(=O)C(F)(F)F)s1)c1ccco1 | 9.9
O=C(/C=C/c1ccco1)c1ccc(O)cc1 | 9.7
Cc1ccc(OCC(=O)NCC(=O)Nc2ccc(F)c(F)c2F)c([N+](=O)[O-])n1 | 12.8
O=C(Cc1cc(=O)[nH]c(=O)[nH]1)NCc1ccccc1 | 7.0
COC(=O)C1=NN(C(=O)c2cccc(Br)c2)C(O)(c2ccc(Cl)cc2)C1 (stereo not drawn) | 2.6
NS(=O)(=O)c1ccc2nc(NC(=O)C3CCCO3)sc2c1 (stereo not drawn) | 13.1
COc1ccccc1-c1nnc(SCC(=O)NCc2ccco2)n1N | 12.0
COc1ccc(CNC(=O)CCC(=O)Nc2nnc(CC(C)C)s2)cc1 | 33.6
CCOc1ccccc1NC1=C(Cl)C(=O)N(c2ccccc2)C1=O | 16.3
CC(C)OC(=O)/C(C#N)=C/c1cn(Cc2ccccc2)c2ccccc12 | 14.2
C#CCOCCOCCOCCNc1nc(N2CCN(C(=O)[C@H](C)n3cc(CCCN=C(N)N)nn3)CC2)nc(N2CCN(C(=O)[C@H](Cc3ccc(O)cc3)n3cc(CCO)nn3)CC2)n1 | -2.5
COc1cc(/C=C/c2ccc3c([N+](=O)[O-])cccc3n2)ccc1OCC(=O)O | 14.3
O=C(CCCn1c(=O)c2ccccc2n(CC(=O)N2CCN(c3ccccc3)CC2)c1=O)NCc1ccco1 | 29.2

Carrying on:
SMILES | Biofilm kill mix
COc1ccccc1NC(=S)NCC1CCCO1 (stereo not drawn) | 5.3
CS(=O)(=O)N(CC(=O)NCCSCc1ccccc1)c1ccc2c(c1)OCO2 | 19.3
Cc1ccccc1NC(=O)c1nc2nccc(C)n2n1 | 9.3
O=C(CSc1ccccn1)N/N=C/c1cc([N+](=O)[O-])ccc1O | 10.1
O=C(/C=C/NNC(=O)c1ccccc1)c1ccc([N+](=O)[O-])cc1 | -7.1
COc1cc(NC(=S)N2CCN(C)CC2)c(OC)cc1Cl | 12.1
CC1=NNC(=O)C1CCC(=O)N/N=C/c1ccc(Cl)cc1Cl (stereo not drawn) | 4.3
O=C(Cn1nc(Cc2ccncc2)c2ccccc2c1=O)Nc1cccnc1Cl | 16.2
O=C(Nc1ccccc1)C1=C[C@@H](c2csc3ccccc23)C[C@@H](OCc2ccc(CO)cc2)O1 | 15.7
Cc1ccc(-c2nc3ccccn3c2C=O)cc1 | -3.1
Cc1ccc(NC(=O)c2ccc(-n3cccn3)nc2)cc1 | 20.4
O=C(CCCCCn1c(=S)[nH]c2ccc(N3CCOCC3)cc2c1=O)NCc1ccccc1 | 19.2
Cc1nn(-c2cc(C(F)(F)F)ccc2Cl)c2nc(C(F)(F)F)[nH]c(=O)c12 | 5.5
CC(NC(=O)c1ccco1)C(=O)OCC(=O)c1ccc(Cl)s1 (stereo not drawn) | -1.2
Cc1ccccc1CSCc1nc(N)nc(Nc2ccccc2C)n1 | 10.3

Additional records follow:
SMILES | Biofilm kill mix
COc1ccc(C(=O)n2nc(-c3ccc(OC)cc3)nc2N)cc1 | 17.7
CCCc1c(NC(=O)Nc2ccc(Cl)cc2Cl)cnn1-c1ccccc1 | 22.6
Fc1ccc(/C=N/Nc2ccccn2)cc1 | 17.2
S=C(NCC1CCCO1)Nc1ccccc1Cl (stereo not drawn) | 10.1
CCc1nnc(NS(=O)(=O)c2ccc(N=Cc3c(C)[nH]n(-c4cccc(Cl)c4)c3=O)cc2)s1 | 4.5
CC(=O)Nc1ccc2nc(-c3ccccc3)cn2c1 | 18.7
